Screens (PubChem BioAssay)
D2 agonist = human D2 receptor agonism in beta-arrestin assay; P14416; DiscoveRx PathHunter D2 beta-arrestin, luminescence, 90 min; 100% = 57 uM dopamine signal; activation, % (concentration not given with the values); 0.084% of 360,000 active; AID 624465; in the data active = activation above about 40%; inconclusive = about 15% to 40%; inactive = below about 15%; also: compound concentration not given in the record; the text of the record calls up to 30% inactive
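Agonist mode: compounds alone added to overnight-plated D2 PathHunter cells for 90 min at 37 C, with 57 uM final dopamine (EC100) defining full response. Beta-arrestin recruitment detected by chemiluminescent reagent, read after 1 h at ambient temperature.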
PINK1 expr mod = changes PINK1 expression; PINK1 immunofluorescence, high-content cytometry, 24 h; Potency, µM (series often up to 76.6 µM), for inactives: at the top dose activation (PINK1 increase), actives largely listed as activators; 0.2% of 410,000 active; active = well fitted activation curve with a large enough effect; inconclusive = small, poorly fitted or top-dose-only effect; inactive = flat fitted curve, though single readings scatter; cell line not stated here;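 also: potency is read from the fitted curve at half-maximal effect; % of control where 0% means no effect; nearly all actives have a fitted effect of over 65% in size; a mitochondrial uncoupler was the plate control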
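Readout is PINK1 immunofluorescence, quantified alongside mitochondrial, cell and nuclear markers by laser-scanning microplate cytometry. Cells from a stable line were exposed to compound titrations (5 concentrations) for 24 hours, with CCCP controls.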
CtBP-E1A inh = CtBP/E1A binding inhibition. AlphaScreen GST-E1A/His-CtBP binding, 1536-well; stronger effect = lower value; control for the full effect not named in the record. activity change, % (test concentration not listed). 0.49% of 340,000 active; in the data active means activity change below about -65%; inconclusive means about -30% to -65%; inactive means above about -30%; also: % is scaled to controls: 0 for no effect and ±100 for the full control effect; compound concentration not given in the record
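GST-E1A and His-tagged CtBP (125 nM each as 5X stock) were preincubated with pin-transferred compound for 2 h at 37 °C in the dark, then glutathione donor and nickel acceptor beads were added for 1 h before AlphaScreen reading.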
Six1-Eya2 inh = inhibitors of human Six1/Eya2 interaction | activity change, % (no concentration beside the values) | Q15475+O00167 | AlphaScreen GST-Six1/His-Eya2 binding, biochemical; stronger effect = lower value; control for the full effect not named in the record | AID 651725 | 0.56% of 360,000 active; in the data active = activity change below about -65%; inconclusive = about -30% to -65%; inactive = above about -30%; also: % is scaled to controls: 0 for no effect and ±100 for the full control effect; compound concentration not given in the record
Target sequence (O00167 whole entry, looked up): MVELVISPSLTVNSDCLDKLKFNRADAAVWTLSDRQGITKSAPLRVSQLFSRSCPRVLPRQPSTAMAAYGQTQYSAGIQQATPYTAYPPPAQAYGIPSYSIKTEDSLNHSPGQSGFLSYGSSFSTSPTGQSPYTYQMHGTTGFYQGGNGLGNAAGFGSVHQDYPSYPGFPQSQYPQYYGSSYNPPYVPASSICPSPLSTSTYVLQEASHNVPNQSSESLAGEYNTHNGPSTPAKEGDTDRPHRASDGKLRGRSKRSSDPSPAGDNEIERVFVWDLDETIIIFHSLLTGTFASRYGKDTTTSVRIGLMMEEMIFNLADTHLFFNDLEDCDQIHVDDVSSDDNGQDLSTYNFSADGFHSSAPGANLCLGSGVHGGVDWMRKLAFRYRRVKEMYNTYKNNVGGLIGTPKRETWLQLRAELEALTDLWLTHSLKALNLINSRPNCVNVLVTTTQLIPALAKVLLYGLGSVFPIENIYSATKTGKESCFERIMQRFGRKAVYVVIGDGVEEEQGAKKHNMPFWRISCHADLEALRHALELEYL
Target sequence (Q15475 whole entry, looked up): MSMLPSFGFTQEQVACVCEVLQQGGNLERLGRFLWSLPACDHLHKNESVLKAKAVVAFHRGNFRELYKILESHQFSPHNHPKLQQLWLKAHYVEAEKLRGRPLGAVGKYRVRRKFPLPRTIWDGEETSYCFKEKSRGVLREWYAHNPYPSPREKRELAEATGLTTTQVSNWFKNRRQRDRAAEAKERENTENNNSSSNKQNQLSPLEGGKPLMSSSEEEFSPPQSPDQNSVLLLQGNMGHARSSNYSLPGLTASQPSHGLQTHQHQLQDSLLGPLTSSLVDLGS
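Homogeneous AlphaScreen proximity assay pairing GST-Six1 with His-tagged Eya2 (added as 5X mix: 250 nM and 500 nM) in 50 mM Tris pH 8.0, 300 mM NaCl, 1 mM TCEP. Glutathione donor and nickel acceptor beads; 1 h, 37 °C, dark.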
D2 potentiator = positive allosteric modulators of human D2 dopamine receptor; DiscoveRx D2 beta-arrestin cells, luminescence, 90 min; 100% = 57 uM dopamine signal; 0.23% of 360,000 active; P14416; potentiation, % (concentration not given with the values); AID 624464; active = potentiation of 50% or more; inconclusive = 30% to 50%; inactive = 30% or less;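 also: compound concentration not given in the record; tested on top of an EC20 dose of dopamine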
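D2 cells co-treated with compound plus 50 nM dopamine (EC20) for 90 min at 37 deg C to detect potentiation. Beta-arrestin recruitment was read as enzyme-fragment luminescence after 1 h at ambient temperature. Full response was set by 57 uM dopamine.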
TRPML1 agonist = agonists of human TRPML1 channel; Q9GZU1; TRPML1-expressing cells, Ca2+ dye fluorescence, FDSS; host cell line not named in the record; reference of the full effect not given here; activation, % (concentration not given with the values); 0.12% of 410,000 active; in the data active = activation above about 50%; inconclusive = about 30% to 50%; inactive = below about 30%; also: 0% is about no effect; the text of the record puts the active cut at 80%
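Agonist activity was taken from a 110 s kinetic Ca2+ dye read on the FDSS after pinning compounds onto TRPML1-DL cells. The cells were seeded at 1,500/well with Tet inducer, incubated about 16 h, then dye-loaded at room temperature.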
The depositor's hits bear a star; ? = inconclusive; . = no result given; [ ] = another dose, or the depositor's remark.

Preview (four entries):
SMILES | D2 agonist | PINK1 expr mod | CtBP-E1A inh | Six1-Eya2 inh | D2 potentiator | TRPML1 agonist
CC(=O)Nc1ccc(C(=O)CSc2nnc(-c3ccc(O)cc3)n2CC2CCCO2)cc1 (stereo not drawn) | -8.6 | -4.2%[38.3 µM] | 5 | 1 | 7 | 0.6
O=C(COC(=O)c1ccc(Cl)cc1O)Nc1cccnc1Cl | 1.4 | -0.4% | -10 | 2 | -3 | 0.5
CCOC(=O)[C@@H]1[C@H]2COc3ccc(Br)cc3[C@@H]2N2C(=O)N(c3cccc(F)c3)C(=O)[C@]12C | 0.3 | 1.9% | 17 | -15 | -11 | 0.8
CS(=O)(=O)N(CC(=O)NCc1ccncc1)c1cc(Cl)ccc1Cl | -0.9 | 0.3% | 4 | 2 | -5 | 0.1

Main list, repeating the preview:
SMILES | D2 agonist | PINK1 expr mod | CtBP-E1A inh | Six1-Eya2 inh | D2 potentiator | TRPML1 agonist
CC(=O)Nc1ccc(C(=O)CSc2nnc(-c3ccc(O)cc3)n2CC2CCCO2)cc1 (stereo not drawn) | -8.6 | -4.2%[38.3 µM] | 5 | 1 | 7 | 0.6
O=C(COC(=O)c1ccc(Cl)cc1O)Nc1cccnc1Cl | 1.4 | -0.4% | -10 | 2 | -3 | 0.5
CCOC(=O)[C@@H]1[C@H]2COc3ccc(Br)cc3[C@@H]2N2C(=O)N(c3cccc(F)c3)C(=O)[C@]12C | 0.3 | 1.9% | 17 | -15 | -11 | 0.8
CS(=O)(=O)N(CC(=O)NCc1ccncc1)c1cc(Cl)ccc1Cl | -0.9 | 0.3% | 4 | 2 | -5 | 0.1
COc1ccc(NC(=O)CC(c2ccco2)C(C)C)cc1 (stereo not drawn) | -3.4 | 0.5% | -6 | -2 | -11 | -1.7
COc1ccc(OC)c(-c2csc(NC(=O)Cc3ccccc3)n2)c1 | -0.9 | 2.8% | -2 | -16 | -13 | 0.5
O=C(Nc1ccc(F)cc1)N1CCN(c2ccc(F)cc2)CC1 | -3.5 | 1.8% | -20 | 4 | -1 | -0.2
Cc1ccc(NC(=O)CSCC(=O)Nc2cc(C(F)(F)F)ccc2N2CCOCC2)cc1 | -4.0 | -0.5% | 0 | 17 | -8 | 0.3
Cc1cc(Br)ccc1S(=O)(=O)NCc1ccccc1 | 1.0 | 6.3% | . | 0 | -1 | -1.4
COC(=O)c1cccc(NC(=O)c2cnoc2C)c1 | -1.6 | -2.4%[38.3 µM] | 0 | -1 | -1 | 0.0
CC12CCC(=O)N1C(C(=O)NNC(=O)c1ccc(F)cc1)CS2 (stereo not drawn) | 2.6 | -1.0% | -11 | 15 | -6 | -0.4
Cc1noc(C)c1S(=O)(=O)Nc1ccc2c(c1)C(=O)N([C@@H](C)CO)C[C@@H](C)[C@@H](CN(C)CC1CCCCC1)OCCCC[C@@H](C)O2 | -3.9 | 0.7% | -16 | 7 | -10 | -0.6
CC(=O)Nc1ccc(S(=O)(=O)NCCC(=O)OCC(=O)c2ccc(Br)cc2)cc1 | -4.9 | 4.7% | 6 | -1 | -11 | -0.3
COc1cccc(/C=C/C(=O)OCC(=O)NCCc2ccccc2)c1 | -1.6 | -0.2% | -1 | 1 | -3 | 0.0
Cc1csc(NC(=O)CCC(=O)c2cccs2)n1 | 0.5 | 4.0% | -15 | -4 | 3 | -0.6
Nc1c(N=Nc2cccc(Cl)c2)c(=O)[nH]n1-c1ccccc1 | -2.5 | 9.7% | -28 | -13 | -7 | 1.4
O=C(CSCc1ccc(Cl)cc1)N/N=C/c1c(Cl)cccc1Cl | -1.0 | ? | 4 | 1 | -5 | 2.0
Cc1[nH]n(-c2ccc([N+](=O)[O-])cc2)c(=O)c1C=NCCN1CCN(C(=O)c2ccccc2)CC1 | -5.7 | 8.2% | 0 | -19 | -6 | -0.5
O=S1(=O)[C@H]2CC3O[C@]2(C[C@@H]3c2ccc(F)cc2)CN1Cc1ccc(Cl)cc1 | -2.6 | 1.4% | . | 3 | -7 | 0.6
CN(C)CCN1CC(C(=O)O)CC1=O (stereo not drawn) | -1.2 | 1.3% | 10 | 7 | 6 | 0.2
CCn1cc(C(=O)NCCC(=O)NC(C)C)c(=O)c2cc3c(cc21)OCO3 | 6.3 | -0.2% | 1 | 0 | -9 | 0.3
CC1Cc2cc(S(=O)(=O)N3CCC(C(=O)N4CCCCC4)CC3)ccc2N1C(=O)C1CC1 (stereo not drawn) | 3.2 | -0.5% | -5 | 6 | -10 | -0.9
O=C(CN1C(=O)C2CCCCC2C1=O)N1CCN(c2ccccc2)CC1 (stereo not drawn) | -0.8 | -0.2% | 3 | 3 | -7 | 0.4
CCCC(=O)Nc1ccc(C(=O)O)cc1NC(=O)CCC | -2.8 | 2.6% | 7 | 7 | 2 | 0.1
Cc1cc(C)cc(N(CCC#N)C(=O)CN2C(=O)NC3(CCCC3)C2=O)c1 | -0.8 | -2.2% | 1 | -4 | -1 | -0.2
Cn1cccc1/C=C1\SC(=S)N(NC(=O)c2ccc(Cl)cc2)C1=O | -6.7 | -0.3% | 1 | ? | -24 | 1.5
COCCCNc1oc(/C=C/c2ccccc2)nc1C#N | 6.3 | 5.7% | 17 | 1 | -3 | -0.7
Cc1ccc(CC2C(=O)N(c3cc(C)ccc3C)C(=O)C2C)cc1 (stereo not drawn) | -3.8 | 1.5% | 15 | 2 | 0 | 1.9
COc1ccc(C(=O)c2ccc(OC)c(OC)c2OC)cc1 | 0.0 | 4.6% | 7 | -1 | -20 | -0.4
CN(C)c1nc(N)c([N+](=O)[O-])c(NCC2CCCO2)n1 (stereo not drawn) | -0.4 | 0.5% | 1 | 0 | -3 | -0.4
COc1cccc(/C=c2/s/c(=C(\C#N)C(=O)N3CCOCC3)n(-c3ccccc3)c2=O)c1 | -1.2 | 19% | 9 | -1 | -5 | 0.6
O=C(O)CCNS(=O)(=O)c1ccc2ccccc2c1 | 1.6 | 1.9%[38.3 µM] | -4 | 7 | 11 | 0.0
Cc1cc(SCC(=O)OCC(=O)c2c(N)n(C)c(=O)n(C)c2=O)c(C)cc1Br | -2.5 | 0.3% | 4 | -10 | 9 | -1.2
CCSc1nnc(NS(=O)(=O)c2ccc(OC)cc2)s1 | -7.4 | 2.5% | -2 | 8 | -3 | 0.2
COc1ccc(CNC(=O)C2CCCN2S(=O)(=O)c2ccccc2)cc1 (stereo not drawn) | 0.9 | -3.4%[38.3 µM] | 15 | 1 | -2 | 0.2
O=C(c1ccc([N+](=O)[O-])s1)N1CCN(c2ccccn2)CC1 | 1.0 | 20% | ? | -8 | 1 | -0.5
Cc1ccc(-c2n[nH]c(=O)c3ccccc23)cc1S(=O)(=O)N(C)C | -4.7 | 25% | 4 | -11 | -2 | 0.8
CC(C)NC(=O)c1cc(-c2cccs2)on1 | -3.4 | 0.5% | 8 | 12 | 2 | -0.7
COc1ccc(-c2ccc(N)cn2)cn1 | -3.8 | -0.1% | 1 | 1 | -6 | 0.4
Cc1nc(C)c(C(=O)C2=C(O)C(=O)N(CCCn3ccnc3)C2c2ccc(Cl)cc2)s1 (stereo not drawn) | -2.6 | 2.5% | -7 | -14 | 2 | 6.7
CNC(=O)COc1ccc(S(=O)(=O)Nc2ccc(OC)cc2)cc1 | -1.9 | -5.0% | -6 | -8 | 1 | 0.5
CC(C)c1cc(-c2cc(C(=O)NCc3ccccc3)on2)nc(NCC2CC2)n1 | 2.7 | 2.8% | 0 | 11 | -9 | 27
CCOC(=O)Cc1csc(NC(=O)CSc2nc(=O)[nH]c3c2CCC3)n1 | -1.4 | 1.8% | 6 | -9 | 3 | -0.7
COc1ccc(C)cc1NC(=O)C1CCCN1S(=O)(=O)c1ccc2c(c1)CCC(=O)N2 (stereo not drawn) | -3.4 | ? | -5 | -10 | -1 | 0.1
COc1ccc2ccccc2c1C1CC(=O)N2CN(C3CCCCC3)CSC2=C1C#N (stereo not drawn) | -2.6 | -0.3% | -15 | -7 | -3 | 0.5
COC(=O)C1(C(=O)OC)NOC2C(=O)N(N(C)c3ncc(C(F)(F)F)cc3Cl)C(=O)C21 (stereo not drawn) | -0.2 | -0.8% | 1 | -16 | 1 | 0.0
CC(C)N(C(=O)COC(=O)[C@@H]1CC(O)CN1S(=O)(=O)c1ccc(C(C)(C)C)cc1)C(C)C (stereo partly drawn) | -2.4 | 0.3% | 5 | 6 | -6 | 0.5
COc1cccc(OCC(=O)N(Cc2nc(-c3ccc(Cl)cc3)no2)C(C)C)c1 | -0.7 | 6.6% | 6 | 0 | -7 | 11
Cc1cc(Oc2ccc(=O)n(C)n2)nc(SCCOc2ccccc2)n1 | -0.5 | 0.0% | 0 | 3 | -1 | 1.1
Cc1ccc2c(C)c(C(=O)N3CCN(C4CCS(=O)(=O)C4)CC3)oc2c1C (stereo not drawn) | -2.6 | 0.2% | -6 | 3 | 4 | 0.6
Cc1cccc2cc(C(c3nnnn3Cc3ccccc3)N3CCCc4ccccc43)c(=O)[nH]c12 (stereo not drawn) | 0.8 | ? | -8 | -2 | 4 | 0.2
O=C(C1CCCO1)N1CCc2ccccc21 (stereo not drawn) | 1.1 | -2.1% | -2 | -1 | -10 | 0.6
CC12CCC=CC1=C(C=O)C1C2CCC2(C)C(O)CCC12 (stereo not drawn) | -0.5 | -3.8% | -18 | -13 | 4 | 2.1
CN(C(=O)c1cccs1)c1ccc(OCC(=O)Nc2ccc(C(=O)O)cc2)cc1 | -1.4 | 2.2% | 9 | 8 | -3 | 0.0
COc1ccc(-c2nc(C=O)cs2)cc1 | -1.5 | 3.5% | 7 | 1 | -4 | 0.6
CCCSc1cc(N2CCOCC2)nc(-c2ccccc2Cl)n1 | -7.1 | 1.1% | 13 | 15 | -30 | 0.9
Cc1ccc(C(=O)OCC(=O)NCc2cccs2)cc1C | -3.8 | -0.4% | 0 | 2 | -5 | 1.6
CC1=CC(=C2C(=O)c3ccccc3C2=O)C=C(C)N1C | -5.2 | 0.7% | -28 | 13 | -6 | -0.2
CCc1nc2ccccc2c(C(=O)OCC(=O)NC(=O)c2cccn2C)c1C | -1.0 | 3.2% | . | -19 | 2 | 1.8
CCOC(=O)NCC(C)(C)CNC(=O)OCC | -1.5 | 3.8%[38.3 µM] | 3 | 4 | -9 | -0.7

Ordered by the number under D2 agonist (rising): 3 from the list above
Molecule,D2 agonist,PINK1 expr mod,CtBP-E1A inh,Six1-Eya2 inh,D2 potentiator
CN(C(=O)c1cccs1)c1ccc(OCC(=O)Nc2ccc(C(=O)O)cc2)cc1,-1.4,2.2%,9,8,-3
CCc1nc2ccccc2c(C(=O)OCC(=O)NC(=O)c2cccn2C)c1C,-1.0,3.2%,.,-19,2
O=C(C1CCCO1)N1CCc2ccccc21 (stereo not drawn),1.1,-2.1%,-2,-1,-10

The results go on:
SMILES | D2 agonist | PINK1 expr mod | CtBP-E1A inh | Six1-Eya2 inh | D2 potentiator | TRPML1 agonist
CC1(C)Cc2cccc(OCC(=O)Nc3ccccc3C(F)(F)F)c2O1 | -3.0 | 2.2% | 7 | 17 | -12 | 2.7
COc1ccc(-c2[nH]ncc2CN2CCCCCCC2)c(OC)c1 | -2.0 | 2.3% | 10 | -1 | -9 | 0.4
O=C(O)CC1SC(=Nc2ccc(O)cc2)NC1=O (stereo not drawn) | -1.5 | 2.1% | 1 | 1 | 3 | 0.6
CCCCCCCSc1nnc(-c2ccccc2N)c(=O)[nH]1 | -1.9 | -1.3% | -19 | 9 | -10 | 0.8
